Screening results deposited in PubChem BioAssay by several laboratories.
T cruzi repl: blocks replication of Trypanosoma cruzi; T. cruzi beta-gal in NIH3T3, luminescence, 90 h; inhibition, % (no concentration beside the values); actives 1.4% (n = 300,000); AID 1885;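 active = mean inhibition across valid replicates above about 55%, limit read from the data; inconclusive = mean below that limit but half or more replicates reach it; inactive = mean below it, under half of replicates reach it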;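 also: signal also drops with host cell toxicity which is not excluded here; 0% = plate median of DMSO wells and 100% = zero luminescence signal; higher percent means less beta-gal luminescence so fewer parasites; stock transfer was 50 nL into about 50 µL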
Ecoli rRNA inh: inhibits bacterial ribosomal RNA function over humanized ribosomes; E. coli WT GFP vs humanized-ribosome RFP mutants, fluorescence, 24 h; hits give low values; DMSO median 0, no signal -100; GFP signal change (wild-type ribosome), % (no concentration beside the values); actives 1.6% (n = 350,000);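 active = significant combined selectivity score with lowered wild-type GFP, culture density cut under 30%, mutant RFP and density less affected; inactive = any of these conditions unmet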; also: one replicate is shown; some compounds called inactive have numbers as strong as hits
Beta apoptosis: beta cell apoptosis inhibition. INS-1E cytokine-induced death, ATP luminescence, 48 h; percent of positive-control rescue, neutral wells zero. protection from apoptosis, % (concentration not given with the values). actives 0.8% (n = 300,000). AID 435005;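 active = all replicates at 75% or more, or half of them and the mean; inconclusive = half reach 75% but not the mean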;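 also: 0% = cytokine-treated negative control wells and 100% = positive control rescue; higher means more ATP so stronger rescue from cytokine killing; wells of about 40 µL received 100 nL stock; the first replicate is given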
MLL AF4-AF9 inh: inhibitors of human MLL-AF4/AF9 interaction. P42568. inhibition, % at 10 µM. actives 0.47% (n = 350,000). AlphaScreen, biotin-AF4 peptide binding to FLAG-AF9;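 active = every replicate reaching a set inhibition limit, whatever the replicate mean, cut at about 25% in these data; inconclusive = mean inhibition reaches that limit but some replicates miss it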;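 also: 0% = plate neutral control median and 100% = total signal loss; the record names both 10 and 1 µM as test concentration; the first replicate is given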
Target sequence (P42568 whole entry, looked up): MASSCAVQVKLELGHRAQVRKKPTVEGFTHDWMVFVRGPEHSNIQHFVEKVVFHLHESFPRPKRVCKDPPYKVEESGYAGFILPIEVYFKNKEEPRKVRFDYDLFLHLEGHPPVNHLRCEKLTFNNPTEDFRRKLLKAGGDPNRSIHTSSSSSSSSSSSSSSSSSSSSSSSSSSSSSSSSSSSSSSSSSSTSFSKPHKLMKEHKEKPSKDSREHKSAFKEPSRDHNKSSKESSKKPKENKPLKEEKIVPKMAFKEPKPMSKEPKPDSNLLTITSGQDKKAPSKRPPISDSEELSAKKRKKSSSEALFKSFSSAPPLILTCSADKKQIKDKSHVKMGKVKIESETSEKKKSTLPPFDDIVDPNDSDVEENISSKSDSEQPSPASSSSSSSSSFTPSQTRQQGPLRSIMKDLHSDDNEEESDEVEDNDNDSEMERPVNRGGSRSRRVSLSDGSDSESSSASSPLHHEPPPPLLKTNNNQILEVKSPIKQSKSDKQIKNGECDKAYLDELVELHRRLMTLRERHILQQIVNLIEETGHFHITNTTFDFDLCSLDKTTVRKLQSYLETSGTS
Ecoli growth: blocks Escherichia coli growth; OD600 absorbance (concentration not given with the values); actives 0.21% (n = 330,000); OD600, 23 h; hits give low values;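 active = OD600 absorbance below the run mean of sample wells minus 3.6 SD, in any replicate, cut at about 0.56 in these data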;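 also: stock transfer was 300 nL into about 60 µL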
FGF22 binding: shifts melting point of recombinant human FGF22; Q9HCT0; recombinant FGF22 thermal shift, SYPRO orange fluorescence; percent of sucrose octasulfate shift, DMSO zero; calls only at 9.99 µM; actives 1.5% (n = 340,000);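 active = melting point raised past a set limit in the mean and every replicate; inconclusive = no clear call; three in four hits are not shown here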
Target sequence (Q9HCT0 whole entry, looked up): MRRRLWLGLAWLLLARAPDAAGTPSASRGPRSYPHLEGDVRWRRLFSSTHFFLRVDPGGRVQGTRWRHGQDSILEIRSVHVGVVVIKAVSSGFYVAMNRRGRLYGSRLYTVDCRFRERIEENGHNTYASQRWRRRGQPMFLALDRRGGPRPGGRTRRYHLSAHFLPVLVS
Bfl-1 A1 inh: inhibitors of the anti-apoptotic protein A1, read as caspase activation. MEF A1-2A-BIM cells, Caspase-Glo 3/7 luminescence, 3 h; percent of clofoctol response, vehicle zero. actives 0.066% (n = 330,000). AID 2462. caspase activation, % (no concentration beside the values);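 active = over half of replicate activation scores above 10%, or exactly half above 10 with the replicate mean above 10; inconclusive = replicate mean below 10 yet half the replicates above 10; inactive = over half of replicates below 10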;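 also: wells of about 30 µL received 50 nL stock; many hits fall short of the cut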
UCH37 DUB inh: human UCH37 deubiquitinating enzyme inhibition. inhibition, % (no concentration beside the values). Q9Y5K5. actives 0.33% (n = 330,000). AID 588478. purified proteasome/UCH37, Ub-AMC cleavage fluorescence;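 active = mean of two replicates above 20%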;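 also: 0% = compound-free wells with enzyme and 100% = wells lacking proteasome; stock transfer was 100 nL into about 20 µL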
Target sequence (Q9Y5K5 whole entry, looked up): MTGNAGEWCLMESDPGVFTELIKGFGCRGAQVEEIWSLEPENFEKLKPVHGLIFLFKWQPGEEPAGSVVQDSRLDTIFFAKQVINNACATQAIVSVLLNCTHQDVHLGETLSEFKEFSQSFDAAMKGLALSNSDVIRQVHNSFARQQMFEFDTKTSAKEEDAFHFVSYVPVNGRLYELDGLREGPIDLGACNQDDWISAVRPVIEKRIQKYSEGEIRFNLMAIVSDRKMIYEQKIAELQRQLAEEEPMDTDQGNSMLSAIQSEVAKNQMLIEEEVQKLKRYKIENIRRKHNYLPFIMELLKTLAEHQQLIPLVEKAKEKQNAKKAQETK
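Assay system: Proteasome-bound UCH37. Buffer or medium: pH 7.4 Tris-HCl (50 mM) with ovalbumin, ATP-MgCl2, DTT. Incubation: 30 min preincubation with enzyme, 25 min cleavage at room temperature. Measured by: fluorescence, ex 355 nm, em 460 nm. Read-out basis: percent inhibition. Control set: wells without proteasome as full block, compound-free enzyme plus substrate as uninhibited.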
Ecoli rRNA inh OD600: also measured in Ecoli rRNA inh; calls as there; OD600 change, %; measured here: OD600 growth;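 optical density of the mix in the first replicate; 0 = DMSO median and -100 = no signal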
Ecoli rRNA inh RFP: recorded beside Ecoli rRNA inh, whose call it bears; RFP signal change, %; measured here: RFP humanized mutant strains;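 first replicate; 0 = DMSO median and -100 = no signal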
Starred values were filed as active, the others as inactive; i = inactive; ? = inconclusive; . = no result given. These rows are one share of the data, so the mix of outcomes need not match the whole.

# | Compound | T cruzi repl | Ecoli rRNA inh | Ecoli rRNA inh OD600 | Ecoli rRNA inh RFP | Beta apoptosis | MLL AF4-AF9 inh | Ecoli growth | FGF22 binding | Bfl-1 A1 inh | UCH37 DUB inh
1 | O=C(NC1CCCN(Cc2ccc(Cl)cc2)C1)c1c(F)ccc(F)c1F (stereo not given) | 45 | -1 | -8 | 1.0 | . | -13 | 0.71 | i | 0.8 | 4.3
2 | O=C(NCCN1CCOCC1)c1ccc(S(=O)(=O)Nc2ccccc2)cc1 | . | -4 | 5 | -1.0 | -2 | 0.8 | 0.61 | i | 0.5 | 0.0
3 | CC(=O)c1ccc(NC(=O)CN2CCN(c3ncccn3)CC2)cc1 | -2 | . | . | . | -7 | . | 0.66 | . | 0.0 | 4.3
4 | CN(C)CCN(C(=O)C1CCN(S(=O)(=O)c2cccs2)CC1)c1nc2ccccc2s1 | ? | 1 | -2 | -1.3 | -5 | -2.2 | 0.63 | i | -1.2 | 4.4
5 | Cc1[nH]nc2c1C(c1ccoc1)C(C#N)=C(N)O2 (stereo not given) | -14 | . | . | . | -1 | . | 0.67 | . | 0.2 | 2.7
6 | Cc1ccc(-c2nnn(CC(=O)Nc3ccccc3N3CCOCC3)n2)cc1 | 13 | 6 | -1 | 0.1 | -2 | -47 | 0.67 | i | -0.8 | 1.9
7 | COc1cc(N=Nc2ccc3ccccc3c2)ccc1O | -22 | -53 | -81 | -21 | -5 | 29* | 0.66 | i | -8.4 | 5.7
8 | CCOC(=O)C1=C(N)Oc2c(oc(CO)cc2=O)C1c1ccc(Cl)cc1 (stereo not given) | . | 5 | 6 | -1.5 | 2 | . | 0.67 | i | 0.3 | 1.8
9 | COc1ccc(/C=N/NC(=O)c2nnn(-c3nonc3N)c2-c2cccs2)cc1OC | -15 | 7 | 6 | 0.7 | -10 | -0.5 | . | i | 0.5 | .
10 | N#CCC1c2ccccc2CCN1C(=O)Nc1cccc(Cl)c1 (stereo not given) | -3 | -44 | -66 | -18 | -11 | 6.0 | 0.64 | i | -0.5 | 6.1
11 | CCn1nc(C(=O)NCc2nnc3ccccn23)c2ccccc2c1=O | . | 5 | 8 | 1.7 | . | 0.8 | 0.69 | i | . | 5.4
12 | CC(=O)NC(CC(=O)Nc1cccc(S(=O)(=O)N2CCCCC2)c1)c1ccccc1 (stereo not given) | -1 | . | . | . | -1 | . | 0.67 | . | 0.2 | 19
13 | CC(=O)c1c(C)n(C)c2ccc(O)cc12 | -8 | . | . | . | -3 | . | 0.69 | . | 2.6 | 4.0
14 | CCCNC(=O)c1ccccc1NC(=O)c1ccccc1N(C)S(=O)(=O)c1ccccc1 | 4 | . | . | . | -8 | . | . | . | 1.5 | 1.6
15 | CCN1CCN(S(=O)(=O)c2ccc(Cl)c(C(=O)Nc3ccc(OC(F)F)cc3)c2)CC1 | -2 | -6 | -6 | -1.7 | -8 | 0.5 | 0.7 | i | 0.5 | 3.1
16 | COc1cccc(NC(=O)Nc2ccc3c(c2)N(C)C(=O)CS3)c1 | 11 | . | . | . | -2 | . | 0.63 | . | -1.5 | -0.4
17 | COc1ccc(OCCSc2nnc(-c3cccnc3)n2N)cc1 | -17 | . | . | . | -2 | . | 0.72 | . | 0.1 | 5.2
18 | Cc1ccc(NC(=O)C2CCCN2S(=O)(=O)c2ccc3c(c2)CCC(=O)N3)cc1Cl (stereo not given) | -2 | -5 | -4 | 2.4 | -6 | -3.1 | 0.72 | i | -0.8 | 5.1
19 | CCN(CC)CCNC(=O)C1(O)c2cc(Br)ccc2NC(=O)N1c1cccc(OC)c1 (stereo not given) | -20 | 11 | 18 | -0.5 | 3 | -1.6 | 0.67 | i | 0.1 | 2.7
20 | COc1cccc(NS(=O)(=O)c2ccc3c(c2)CCCN3C(C)=O)c1 | -1 | -5 | 2 | -1.7 | 7 | -2.9 | 0.65 | i | 0.5 | 3.8
21 | CN(C(=O)CSc1nc(C2CC2)nc2ccccc12)c1nc(-c2ccccc2)cs1 | 37 | . | . | . | -3 | . | 0.69 | . | 0.2 | 1.7
22 | CCc1ccc(NC(=S)N2CCC(NC(=O)c3ccccc3)CC2)cc1 | -1 | 6 | 2 | -2.0 | 1 | 1.6 | 0.64 | i | 0.3 | 1.9
23 | O=C(CSc1ccccc1Cl)NC1CCCc2ccccc21 (stereo not given) | 6 | . | . | . | -10 | . | 0.71 | . | 0.6 | 5.4
24 | COc1ccc(-n2nc(C(=O)NCCCN3CCOCC3)c3ccccc3c2=O)c(OC)c1 | -10 | 12 | -1 | 2.6 | -6 | -1.0 | 0.69 | i | 0.5 | 2.0
25 | CC(C)(C)OC(=O)N1CCC(C(=O)Nc2ccc3c(c2)CCC3)CC1 | . | -8 | -38 | -11 | 3 | 0.6 | 0.66 | i | 0.3 | 0.0
26 | COc1ccccc1/C=C1\SC(=S)N(CCC(=O)Nc2cccc(O)c2)C1=O | -7 | -31* | -20* | -4.2* | . | 6.5 | 0.72 | i | 0.8 | 5.0
27 | CCCCC1=CC2=C(c3ccco3)C(=O)C(C)(OC(=O)c3ccc(OC)cc3)C(=O)C2=CN1CCCOC(C)C (stereo not given) | -6 | 6 | 15 | 2.3 | -2 | . | 0.73 | i | -0.8 | 4.0
28 | CCc1nnc(NC(=O)C2CCCO2)s1 (stereo not given) | -4 | 22 | 10 | 2.3 | -2 | -2.2 | 0.61 | i | -0.7 | 2.3
29 | C/C(=N\NC(=O)c1ccccc1OCc1ccc(F)cc1)c1ccccn1 | . | -37 | -53 | -15 | 94* | -0.1 | . | i | -2.3 | .
30 | O=C1NC(=Nc2ccccc2)c2ccc([N+](=O)[O-])cc21 | -3 | . | . | . | 4 | . | 0.71 | . | -0.3 | 4.0
31 | CCC1(CC)C(=O)C2=C3C1[C@H](C(=O)OC)CC(C(=O)OC)C[C@H]3[C@H]1C(=O)N(c3ccccc3)C(=O)[C@H]1[C@H]2C (stereo not given in full) | 6 | . | . | . | -6 | . | . | . | 1.0 | 0.6
32 | C/C(=N\NC(=O)c1cc2ccccc2cc1O)c1cccs1 | 55* | 11 | 18 | 5.2 | 2 | -1.2 | . | i | -7.9 | .
33 | CCOC(=O)c1c(NC(=O)CSc2nnc(-c3cccnc3)o2)sc2c1CCC2 | -2 | . | . | . | -2 | . | 0.72 | . | -0.7 | 0.9
34 | Nc1c2c(nn1-c1ccccc1)CCC2 | -5 | 11 | 9 | -2.2 | -2 | 1.6 | 0.7 | i | 0.5 | 3.2
35 | CC(C)Nc1nnc(SCC(=O)N2CCN(C(=O)c3ccco3)CC2)s1 | . | -2 | -1 | 0.6 | 7 | -3.9 | 0.67 | i | -1.4 | 1.4
36 | C/C(=N\NC(=O)c1ccncc1)c1ccc(N(C)C)cc1 | 5 | 20 | 15 | -1.6 | -8 | -2.7 | . | i | 1.0 | .
37 | CCOc1ccc(NC2OC(C)C(O)C(O)C2O)c([N+](=O)[O-])c1 (stereo not given) | -2 | -2 | 0 | 2.0 | -5 | 0.0 | 0.76 | i | -0.1 | 2.9
38 | O=C(NCCN1CCN(c2ccccc2)CC1)C1(S(=O)(=O)c2ccc(Cl)cc2)CC1 | . | -1 | -6 | -0.2 | -1 | 14 | 0.7 | i | -0.3 | 1.0
39 | CC(C)(CNC(=O)C1c2ccccc2-c2ccccc21)N1CCOCC1 | -12 | 11 | 11 | 1.0 | -4 | 0.8 | 0.7 | i | 0.4 | -1.4
40 | NN1C(=O)NC(c2ccccc2)(c2ccccc2)C1=O | -10 | 4 | 4 | -1.6 | -7 | -1.3 | 0.65 | i | 0.0 | 3.6
41 | COc1ccc(C2C3=C(CCCC3=O)Nc3nc(SCc4ccc(C(=O)O)cc4)nn32)cc1OC (stereo not given) | 6 | 5 | 2 | -1.9 | -5 | -9.1 | 0.7 | i | 0.3 | 0.8
42 | Cc1sc(-c2ccncc2)nc1OC(=O)c1ccccc1 | -19 | . | . | . | 0 | . | 0.67 | . | 0.7 | 5.5
43 | CCC(=O)Nc1cccc(NC(=S)NC(=O)c2cc3ccccc3o2)c1 | -2 | 10 | 18 | -1.7 | 1 | -3.4 | . | i | -1.4 | .
44 | CSc1ccc(C(=S)N2CCCC2)cc1 | -20 | 13 | 6 | 1.5 | -1 | 0.5 | 0.72 | i | -0.1 | 6.1
45 | CCCn1c(O)c(CN2CCCC(C)C2)c(C)c(C#N)c1=O (stereo not given) | 1 | . | . | . | -6 | . | 0.72 | . | -0.5 | 2.3
46 | O=C(Nc1nnc(-c2ccco2)s1)c1ccccc1 | -11 | . | . | . | -2 | . | 0.66 | . | -6.7 | 0.9
47 | N#Cc1ccc(C(=O)OCC(=O)N2CCCC2)cc1 | 1 | 6 | 6 | -0.5 | -7 | 2.5 | 0.65 | i | 0.6 | 3.3
48 | COCCn1c(C)cc(C(=O)CN2C(=O)NC3(CCCCCC3)C2=O)c1C | . | 8 | 5 | -0.2 | 1 | 0.2 | 0.67 | i | -0.7 | 0.1
49 | CCc1ccc2c(c1)C(C)=CC(C)(C)N2 | 6 | . | . | . | -11 | . | 0.75 | . | -0.4 | -15
50 | COc1cccc(NC(=S)Nc2cc(C)cc(C)n2)c1 | 2 | 3 | 4 | -0.4 | 9 | -6.0 | 0.68 | i | 1.0 | 5.4
51 | COc1ccc(-c2ccc(=O)n(Cc3cccc([N+](=O)[O-])c3)n2)cc1 | -5 | -7 | -28 | 2.2 | -2 | 8.8 | 0.66 | i | 0.3 | 4.1
52 | O=C(CCCCCn1c(=S)[nH]c2ccc(N3CCOCC3)cc2c1=O)NCc1ccc(Cl)cc1 | 7 | -24* | -18* | -0.3* | 2 | -0.7 | 0.74 | i | 1.2 | -66
53 | Cc1cc(-c2nc(C)c(-c3nnc(SCC(=O)Nc4cc(Cl)cc(Cl)c4)n3C)s2)no1 | 16 | 4 | 11 | -0.1 | 0 | -3.5 | 0.65 | i | 0.5 | -338
54 | c1cnc2c(Oc3ncnc4sccc34)cccc2c1 | -11 | 8 | 6 | 2.2 | -1 | -13 | 0.69 | i | -0.1 | 2.4
55 | CCOC(=O)N1CCC(NCCNC(=O)c2cccs2)CC1 | 18 | . | . | . | -1 | . | 0.74 | . | -0.3 | 2.6
56 | CCOC(=O)C1(CCCc2ccccc2)CCN(C(=O)c2ocnc2C)CC1 | 17 | -25 | -21 | -2.6 | 0 | 0.7 | 0.72 | i | -1.0 | 1.9
